Assay outcomes as filed in PubChem BioAssay.
HSV replic up – increases HSV replication in cells; HSV replication augmentation in cells, fold increase; 220,000 compounds, 0.005% hits; maximum fold increase;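 active = peak rise of 1.5-fold or more in the series; tested in PC3 cells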;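 also: first round at 10 µM; read as green reporter fluorescence; hits show the peak of a series up to 25 µM; 1 = signal of infected wells without compound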
INS promoter inh – TRM-6 insulin promoter activity inhibition. TRM-6 cells (human fetal islet line), insulin promoter-eGFP reporter, imaging; reporter expression induced with tamoxifen. inhibition, % at 2 µM. 130,000 compounds, 0.9% hits. AID 1273;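 active = inhibition above the mean plus 3 SD, with well images judged a real hit on visual review, cut at about 60% in these data, passing the limit was not always enough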
GALR2 agonist – agonists of human galanin receptor 2 (GALR2); O43603; GALR2-expressing cells, agonist activation read-out; activation, %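 (tested at 5 µM)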; 140,000 compounds, 0.48% hits;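 active = above mean plus 3 SD of all compounds, about 5% in these data, not always enough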;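 also: 0% = vehicle buffer wells and 100% = reference agonist at full effect; tested in CHO reporter cells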
Target sequence (O43603 whole entry, looked up): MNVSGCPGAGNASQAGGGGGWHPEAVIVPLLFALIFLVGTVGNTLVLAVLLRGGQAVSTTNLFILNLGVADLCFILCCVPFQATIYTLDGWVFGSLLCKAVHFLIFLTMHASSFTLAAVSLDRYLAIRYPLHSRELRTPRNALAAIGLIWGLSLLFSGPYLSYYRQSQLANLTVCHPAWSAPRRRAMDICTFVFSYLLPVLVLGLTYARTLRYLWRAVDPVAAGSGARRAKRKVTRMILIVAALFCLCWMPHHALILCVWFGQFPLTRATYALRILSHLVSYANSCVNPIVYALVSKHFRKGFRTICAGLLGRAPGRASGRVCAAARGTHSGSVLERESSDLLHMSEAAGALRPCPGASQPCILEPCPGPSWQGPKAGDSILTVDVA
PKD1 kinase inh – PKD1 (human) kinase inhibition; Q15139; PKD1 kinase fluorescence polarization assay; inhibition, %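 (about 10 µM by stock and volumes)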; 200,000 compounds, 0.056% hits; AID 797;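 active = inhibition of 50% or more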;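 also: controls were vehicle for no effect and a reference inhibitor for full effect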
RGS16-Gao – RGS16-Galphao interaction regulator (human) | O15492+P09471 | bead-based flow cytometry RGS16-Galphao binding, fluorescence; actives lie on both sides | binding response (% of control), % at 10 µM | 220,000 compounds, 0.38% hits | AID 1441;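 active = below 25% or above 175%, edge rows of some plates excepted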;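 also: Galphao activated by GDP with aluminum fluoride before binding; 100% = wells without compound and 0% = beads without RGS; some results beyond the cut were filed as inactive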
Target sequence (O15492 whole entry, looked up): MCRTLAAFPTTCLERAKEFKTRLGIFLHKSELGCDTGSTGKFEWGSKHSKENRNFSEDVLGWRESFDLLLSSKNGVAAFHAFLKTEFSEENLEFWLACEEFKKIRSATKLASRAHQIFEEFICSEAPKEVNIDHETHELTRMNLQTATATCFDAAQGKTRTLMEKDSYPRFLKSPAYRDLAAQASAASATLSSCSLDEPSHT
Target sequence (P09471 whole entry, looked up): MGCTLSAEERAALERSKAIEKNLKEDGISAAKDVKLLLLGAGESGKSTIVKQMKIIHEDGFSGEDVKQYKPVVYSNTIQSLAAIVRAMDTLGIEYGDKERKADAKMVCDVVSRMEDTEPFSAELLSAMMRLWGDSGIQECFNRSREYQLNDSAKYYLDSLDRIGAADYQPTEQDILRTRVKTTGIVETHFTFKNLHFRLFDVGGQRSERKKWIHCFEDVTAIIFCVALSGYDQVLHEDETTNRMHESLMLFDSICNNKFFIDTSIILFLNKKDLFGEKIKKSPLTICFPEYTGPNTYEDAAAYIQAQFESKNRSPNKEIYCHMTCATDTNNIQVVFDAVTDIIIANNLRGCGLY
INS promoter inh cell count – further read-out of INS promoter inh, marked with its call; normalized cell count, %; measured here: cell count, toxicity; reference of the scale not given here;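 cells exposed to compound for 48 h; stained nuclei by imaging scaled within each plate; lower means fewer cells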
HSV replic up primary fold – further read-out of HSV replic up, marked with its call; fold increase; compound at 10 µM; measured here: primary screen fold increase 10 uM; tested in PC3 cells;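 GFP signal in the first replicate; 1 = infected wells without compound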
Numbers without * were called inactive; i = inactive; / = no result given.

SMILES	HSV replic up	HSV replic up primary fold	INS promoter inh	INS promoter inh cell count	GALR2 agonist	PKD1 kinase inh	RGS16-Gao
N#CCC(=O)Nc1ccc(C(=O)OCC(=O)c2ccc3c(c2)OCCO3)cc1	i	1.1	/	/	/	1	103
Cn1cccc1C(=O)OCC(=O)NC(=O)NC1CCCCC1	i	0.83	/	/	/	6	107
Cc1cc(=O)n2[nH]c(C)c(-c3ccccc3)c2n1	/	/	-13	121	-1.3	-1	75
CCN(CC)C(=O)CSCc1cnn(-c2ccccc2)c1-n1cccc1	i	1.2	4	104	-2.2	2	62
O=C(c1cnn2c(C(F)(F)F)cc(-c3ccc(Br)cc3)nc12)N1CCOCC1	i	1.1	36	127	-0.7	-10	118
O=c1cc(Cl)[nH]c(=O)n1CCNc1ncc(C(F)(F)F)cc1Cl	i	0.89	9	121	-1.6	11	119
Cc1ccc(/C=c2\sc3nc(-c4cccs4)nn3c2=O)o1	i	1.2	13	59	-1.5	-12	100
COCCCNC(=O)Cn1cc(C(=O)C2CC2)c2ccccc21	i	0.99	-73	134	-1.8	4	101
O=C(CSc1nnnn1-c1ccc(Cl)c(C(=O)O)c1)NC(c1ccccc1)c1ccccc1	i	1.1	/	/	/	/	108
CCOC(=O)c1c(NC(=O)CN2CCC(C)CC2)sc(C)c1C	i	0.97	33	97	/	-5	93
COc1ccc2cc(CN(CC3CCCO3)C(=O)Nc3ccccc3OC)c(=O)[nH]c2c1 (stereo unspecified)	i	0.72	/	/	/	2	108
COc1ccc(-c2noc(CCC(=O)NCC3CCN(Cc4cccc(C)c4)CC3)n2)cc1	i	0.74	-46	80	-0.6	-6	101
Cc1ccc(-c2c(C#N)c(N)nc3c2CCCCC3)cc1	i	0.91	-55	78	-3.1	-1	95
Cc1cc(N2CCOCC2)ccc1/C=C\[N+](=O)[O-]	i	0.75	29	91	-1.4	0	116
CCOC(=O)N1CCN(C(=O)C(C)N(c2ccccc2)S(C)(=O)=O)CC1 (stereo unspecified)	i	0.9	/	/	/	3	106
O=C1/C(=C/c2ccccn2)SC(=S)N1c1ccc(O)cc1	i	1.1	/	/	/	/	102
Cc1nc(CN(C)Cc2nc(Cc3cccc(F)c3)no2)cs1	i	0.97	/	/	/	3	99
Cc1ccc2c(CN3C(=O)NC(C)(c4ccc5c(c4)OCO5)C3=O)cc(=O)oc2c1 (stereo unspecified)	i	0.92	/	/	-1.6	3	108
CCOC(=O)N1CCN(C(=S)Nc2cc(OC)c(OC)cc2C(=O)OC)CC1	i	0.65	-8	107	-0.2	-1	105
Cc1ccccc1OCc1nnc(SCc2cc(=O)[nH]c3ccccc23)o1	i	0.78	19	142	-2.5	2	100
CC12CC(c3ccccc3O1)C(C(=O)NCc1ccccc1)C(=O)N2 (stereo unspecified)	i	0.96	/	/	0.4	-5	101
Nc1ncnc(Nc2ccccc2C(F)(F)F)n1	i	0.99	/	/	-0.8	17	133
Cc1ccc(S(=O)(=O)N(C)C)cc1NC(=S)N1CCN(Cc2ccc3c(c2)OCO3)CC1	i	0.98	/	/	/	-2	98
O=C(CCNC(=O)Cn1ccc2ccccc2c1=O)NCCCN1CCOCC1	i	0.97	/	/	/	1	100
COc1cccc(NC(=S)N2CCN(C/C=C/c3ccccc3)CC2)c1	i	0.89	25	77	-2.6	4	121
C/C(=N\NC(=O)c1ccc(Cl)cc1)c1ccc(N2CCOCC2)cc1	i	0.78	12	104	-1.1	1	107
O=C(CCN1C(=O)C2C3C=CC(C3)C2C1=O)NCCN1CCCc2ccccc21 (stereo unspecified)	i	0.98	36	185	0.1	-16	100
S=c1[nH]nc(-c2cccc(Br)c2)o1	i	0.85	-16	76	-0.3	-9	103
COc1ccc(N2CCN(C(=O)CNC(=O)c3ccc(C(C)(C)C)cc3)CC2)cc1	i	0.84	-140	51	-2.3	-12	109
CCOC(=O)CN1C(=O)CSc2ccccc21	i	0.97	/	/	-1.6	7	102
O=C1C(Cc2c[nH]c3ccccc23)NC(=S)N1Cc1ccccc1 (stereo unspecified)	i	1	-44	141	/	2	109
O=C(NCc1cccnc1)/C(=C\c1ccc(-c2cccc(Cl)c2)o1)S(=O)(=O)c1ccccc1	i	0.58	18	106	-1.4	3	89
CCn1cnc2cc(NC(=O)c3cccs3)ccc21	i	0.88	-60	117	/	-2	103
COc1ccc(-n2nc([N+](=O)[O-])c(=NCCc3ccc(OC)c(OC)c3)n2O)cc1	i	1.2	21	63	-1.2	-5	135
Nc1nnc(SCC(=O)N2CCN(Cc3ccccc3)CC2)s1	i	0.86	0	141	-0.8	-5	104
Cc1ccc(NC(=S)NNC(=O)Nc2ccccc2)cc1	i	0.94	/	/	/	-11	89
CCOc1c(N2CCCCC2)c(=O)c1=O	i	0.99	28	91	-1.0	-2	101
Cc1ccc(NS(=O)(=O)c2cc(C(=O)N3CCN(C)CC3)ccc2C)cc1	i	0.97	-14	121	-0.6	-2	98
CCOc1ccc(CN(C)C(C)C(=O)Nc2ccc([N+](=O)[O-])cc2Cl)cc1OC (stereo unspecified)	i	1.2	18	134	-1.1	4	117
COc1ccc(S(=O)(=O)N(C(C)=O)c2ccc(OC(C)=O)c3ccccc23)cc1[N+](=O)[O-]	i	1.1	/	/	-0.7	-5	103
Cc1ccc(CCNC(=O)C2CCN(S(=O)(=O)N3CCC4(CC3)OCCO4)CC2)cc1	i	1.1	/	/	0.3	2	97
CCCc1cc(=O)oc2c(C)c(OS(C)(=O)=O)ccc12	i	0.86	25	85	-0.7	6	/
CN(C)C(CNC(=O)c1cccc(OC(F)F)c1)c1ccco1 (stereo unspecified)	i	1.1	-24	39	-1.0	-10	111
Cc1ccc(NC(=O)Cn2cccc2C2=NC(c3ccccc3)CO2)cc1C (stereo unspecified)	i	0.96	3	93	-0.4	3	114
Cc1cc2oc(=O)cc(CN3CCC(C)CC3)c2cc1Cl	i	0.91	/	/	-2.4	-9	101
COCCNC(=O)c1snc2ccc(Cl)cc12	i	0.78	67	111	-1.5	-10	103
Cc1cc(Cl)ccc1OCCCC(=O)N1CCN(C(=O)c2ccco2)CC1	i	0.97	/	/	-1.6	15	99
Cc1ccc2nc(SCC(=O)Nc3cc(C(F)(F)F)ccc3N3CCOCC3)[nH]c2c1	i	0.69	-93	10	3.4	-2	81
O=C(Cn1nnc(-c2ccccc2-n2cnnn2)n1)NCc1ccccc1	i	0.9	/	/	-0.7	8	92
Nc1sc(-c2ccccc2)n[n+]1Cc1cccc2cccnc12	i	0.58	/	/	/	/	106

In another format: entries from further up
Cc1ccc(CCNC(=O)C2CCN(S(=O)(=O)N3CCC4(CC3)OCCO4)CC2)cc1
  HSV replic up: i
  HSV replic up primary fold: 1.1
  INS promoter inh: /
  INS promoter inh cell count: /
  GALR2 agonist: 0.3
  PKD1 kinase inh: 2
  RGS16-Gao: 97
CCCc1cc(=O)oc2c(C)c(OS(C)(=O)=O)ccc12
  HSV replic up: i
  HSV replic up primary fold: 0.86
  INS promoter inh: 25
  INS promoter inh cell count: 85
  GALR2 agonist: -0.7
  PKD1 kinase inh: 6
  RGS16-Gao: /

Continuation:
SMILES	HSV replic up	HSV replic up primary fold	INS promoter inh	INS promoter inh cell count	GALR2 agonist	PKD1 kinase inh	RGS16-Gao
COc1ccc(N2CCN(C(=O)Nc3cccc(C(F)(F)F)c3)CC2)cc1	i	0.89	-55	34	-0.1	-4	101
Cc1cccc(-n2nnnc2SCc2csc(-c3ccccc3)n2)c1	i	0.99	20	121	-2.2	7	109
O=C(CSc1nnc(-c2cnccn2)n1Cc1ccco1)c1ccc2ccccc2c1	/	/	-12	160	-1.4	1	19*
CC(=O)NC1(C(F)(F)F)C(=O)Nc2c1c(=O)[nH]c(=O)n2Cc1ccco1 (stereo unspecified)	i	1	54	146	-0.8	-5	105
CCCn1cc(SCC(=O)Nc2ccc3c(c2)OCO3)c2ccccc21	i	0.92	/	/	-4.0	15	101
CCN(CC)S(=O)(=O)c1ccc2c(c1)c(=O)c(C(=O)NCc1ccc3c(c1)OCO3)cn2C	i	0.84	50	84	-1.5	3	102
CCn1c(SCC(=O)Nc2nc(C)cs2)nnc1C(NC(=O)c1ccccc1Cl)C(C)C (stereo unspecified)	i	1	-238	53	-0.7	0	103
CCOC(=O)c1ccc(NC(=O)COc2ccc(S(=O)(=O)N3CCCC3)cc2)cc1	i	0.99	57	100	-1.7	-2	98
CC(C(=O)c1ccccc1)[n+]1cccc(C(N)=O)c1 (stereo unspecified)	i	0.94	/	/	/	/	103
COc1ccc(CCNC(=O)CCCOc2cc(=O)n(C)c3ccccc23)cc1OC	i	0.92	-27	88	/	-6	102
CCOC(=O)c1ccc(NCCOC)c([N+](=O)[O-])c1	i	0.91	/	/	/	-6	109
CCOc1ccccc1N1CCN(C(=O)c2ccccc2)CC1	i	0.77	-15	121	-2.7	6	108
CC1(C(=O)N2CC3(CC(c4cccc([N+](=O)[O-])c4)=NO3)C[C@H]2C(=O)NCC(N)=O)CC1 (stereo partly specified)	i	0.93	/	/	-4.0	-17	102
Cc1cc([N+](=O)[O-])c(N2CCC[C@@H]2C(=O)O)c([N+](=O)[O-])c1	i	1	8	93	-1.1	-3	107
O=C(Nc1ccc(Br)cc1)N1CCCC(O)C1 (stereo unspecified)	i	0.95	/	/	/	-1	100
c1cncc(CNc2nc(N3CCOCC3)nc(N3CCOCC3)n2)c1	i	0.94	-3	62	1.7	3	98
O=C(NC1CCCCC1)C(c1ccncc1)N(Cc1ccccc1)C(=O)c1ccc(-c2ccccc2)[nH]1 (stereo unspecified)	/	/	3	80	-1.0	-14	102
CN1CCN(/N=C/c2ccc(-c3ccccc3)cc2)CC1	i	0.91	7	82	/	14	114
CCOC(=O)c1ccc[n+](CC(=O)c2ccccc2)c1	i	0.89	/	/	0.7	-5	14
COc1cccc(CNC(=O)c2ccc3nc[nH]c3c2)c1	i	0.83	45	129	-0.4	-10	106

Entries from the list above with a COOH group:
SMILES	HSV replic up	HSV replic up primary fold	INS promoter inh	INS promoter inh cell count	GALR2 agonist	PKD1 kinase inh	RGS16-Gao
O=C(CSc1nnnn1-c1ccc(Cl)c(C(=O)O)c1)NC(c1ccccc1)c1ccccc1	i	1.1	/	/	/	/	108
Cc1cc([N+](=O)[O-])c(N2CCC[C@@H]2C(=O)O)c([N+](=O)[O-])c1	i	1	8	93	-1.1	-3	107

Other results.
SMILES	HSV replic up	HSV replic up primary fold	INS promoter inh	INS promoter inh cell count	GALR2 agonist	PKD1 kinase inh	RGS16-Gao
O=C(COC(=O)C1(c2ccccc2F)CCCC1)N1CCc2ccccc21	i	1.1	-33	92	-1.9	6	99
CCOC(=O)CSc1nnc(CNc2ccccc2Cl)n1-c1ccccc1	i	0.86	27	98	-1.6	-4	102
CCOC(=O)C1/C(=N\O)CC(C)(O)C(C(=O)OCC)C1c1ccc(N(C)C)cc1 (stereo unspecified)	i	0.97	61	58	1.6	-8	101
Cc1c(Cl)cccc1Nc1ccccc1C(=O)O	i	0.94	7	103	/	6	114
S=c1[nH]nc(-c2cc(-c3ccco3)[nH]n2)n1-c1cccc2ccccc12	i	1.2	26	79	-0.3	-4	88
CCOC(=O)C1CCN(c2ncnc3c2nnn3Cc2ccccc2Cl)CC1	i	1	-4	109	/	5	105
CSc1ccc(/C=N/NC(=O)c2ccc(C)c(C)c2)cc1	i	0.76	-8	124	-0.3	1	92
O=S(=O)(Nc1cccnc1)c1ccccc1	i	1	-14	100	/	-1	96
CCn1c(SCC(=O)Nc2cccnc2Cl)nnc1-c1ccccc1	i	0.96	11	106	-2.3	1	114
CCOC(=O)c1ccc(CNC(=O)Cn2nnc(-c3ccccc3F)n2)o1	i	0.88	/	/	/	-6	100
CSCC[C@@H](Nc1nc(-c2ccccc2)nc2c1oc1ccccc12)C(=O)O	i	0.91	-17	235	-0.8	-7	103
OC(COc1ccc(Br)cc1)CN1CCOCC1 (stereo unspecified)	i	0.88	43	97	-0.7	-10	/
CCOc1cccc(C(=O)NC(=S)Nc2cccnc2)c1	i	1.2	/	/	-1.9	-5	103
C=CCn1c(=S)[nH]c2nc3c(cc2c1=O)COC(C)(C)C3	i	1.1	24	144	-1.5	-5	95
Cc1ccc(NC(=O)CN2C(=O)S/C(=C\c3cccn3-c3cccc(C(=O)O)c3)C2=O)c(C)c1	i	0.82	/	/	-1.7	6	109
Cc1cc(C)nc(SCC(=O)Nc2ncccn2)n1	i	0.99	31	132	-1.9	-5	64
CCOC(=O)CSc1nc(=O)n2ccccc2n1	i	1.1	/	/	/	-4	126
O=c1[nH]cnc2c1C(c1ccccc1[N+](=O)[O-])c1c(nc[nH]c1=O)O2	i	0.95	19	145	-3.0	2	106

As entered above:
PKD1 kinase inh with Cc1cc(C)nc(SCC(=O)Nc2ncccn2)n1 stands at -5
INS promoter inh with CSCC[C@@H](Nc1nc(-c2ccccc2)nc2c1oc1ccccc12)C(=O)O stands at -17
GALR2 agonist with Cc1ccc(NC(=O)CN2C(=O)S/C(=C\c3cccn3-c3cccc(C(=O)O)c3)C2=O)c(C)c1 stands at -1.7

Compounds as they come; 1.1% or so of the library scored in one or more.
